# MITF inh: inhibitors of MITF, primary screen, MITF inhibitor project, cell-based, luminescence; TRPM1 promoter luciferase, 24 h; inhibition, % (test concentration not listed); 37,000 compounds, 0.28% hits;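 active = most replicates at 85% or more, or half of them and the mean; inconclusive = half reach 85% but not the mean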;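 also: human melanocyte line stably carrying TRPM1 promoter luciferase reporter; 0% = vehicle wells and 100% = a positive control; the first replicate is given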
# Hedgehog inh: Hedgehog pathway signaling inhibitors, primary screen, luminescence, Shh-LIGHT2 cells, Gli-luciferase | inhibition, % (no concentration beside the values) | Shh-LIGHT2 Gli-luciferase reporter, 30 h | 22,000 compounds, 2.1% hits;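 active = replicate mean of 65% or more; inconclusive = mean lower but half the replicates past it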;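 also: pathway switched on by Shh-conditioned medium diluted 1 in 25 in low serum; 100 nL library stock added to about 40 µL; 0% = median of neutral wells and 100% = positive control level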
# PD-1 reversal: activators reversing PD-1 mediated T-cell inhibition, primary screen, luminescence, primary human CD4 T cells, PD-L1 beads; CellTiter-Glo 96 h; activation, % (no concentration beside the values); 29,000 tested, under 10 active; AID 2316, 2010;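 active = replicate mean of 50% or more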;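 also: 0% = median vehicle wells and 100% = positive control; 100 nL library stock added to about 50 µL; numbers are from one replicate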
# YB-1 expr inh: inhibitors of YB-1 gene expression, primary screen, cell-based, fluorescence; U2OS, qRT-PCR YB-1 vs CDIP delta delta Cp, 16 h; active compounds read high; zero = DMSO, each unit about twofold; AID 434959, 2010; 30,000 compounds, 0.37% hits; delta delta Cp (YB-1 minus CDIP) (concentration not given with the values);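 active = delta delta Cp rounded down to an integer at or above 3, about 3 SD of DMSO wells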;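 also: higher means less YB-1 transcript or more CDIP transcript relative to DMSO; stock transfer was 100 nL into about 100 µL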
# Starred values were filed as active, the others as inactive; ? = inconclusive; / = not tested or not shown.
# Second line of a record: YB-1 expr inh, MITF inh, PD-1 reversal, Hedgehog inh
- C[C@@H]1CCCCO[C@H](CN(C)S(=O)(=O)c2ccccc2)[C@@H](C)CN([C@H](C)CO)C(=O)c2cc(NC(=O)C3CCCCC3)ccc2O1
→ 0.0335, 0.0, -2.3, -24.6
- COc1ccc(NC(=O)N(C)C[C@@H]2Oc3c(NS(C)(=O)=O)cccc3C(=O)N([C@@H](C)CO)C[C@@H]2C)cc1
→ -0.0372, -8.8, 3.6, -19.8
- COc1ccc(NC(=O)Nc2ccc3c(c2)C(=O)N([C@@H](C)CO)C[C@H](C)[C@H](CN(C)C)O3)cc1
→ -0.0786, -4.0, 1.0, -4.0
- CC(=O)c1cn(CC(=O)Nc2cccc(C(F)(F)F)c2)c2ccccc12
→ /, 40.5, -0.9, /
- C[C@@H]1CN([C@H](C)CO)C(=O)c2cc(NS(=O)(=O)c3ccc(Cl)cc3)ccc2O[C@H]1CN(C)Cc1ccccc1
→ 0.372, -3.2, 0.0, -2.6
- Cc1ccc(S(=O)(=O)N(C)C[C@H]2Oc3ccc(NC(=O)CCC(F)(F)F)cc3CC(=O)N([C@@H](C)CO)C[C@H]2C)cc1
→ -0.121, 5.0, -0.6, /
- C[C@H](CO)N1C[C@H](C)[C@@H](CN(C)Cc2ccc(C(=O)O)cc2)Oc2c(NS(C)(=O)=O)cccc2C1=O
→ 0.00476, -10.9, 3.5, -22.6
- CC(C)NC(=O)N(C)C[C@H]1Oc2ccc(NS(C)(=O)=O)cc2C(=O)N([C@@H](C)CO)C[C@H]1C
→ -0.0468, -7.3, 0.3, /
- C[C@H](CO)N1C[C@H](C)[C@@H](CN(C)Cc2ccc3c(c2)OCO3)Oc2ccc(NC(=O)Nc3ccccc3)cc2C1=O
→ -0.303, 0.3, 1.3, /
- COc1ccc(NC(=O)Cn2nnc(-c3ccccc3Cl)n2)c(OC)c1
→ /, -8.6, 0.3, /
- C[C@H](CO)N1C[C@H](C)[C@@H](CN(C)C(=O)Nc2ccc3c(c2)OCO3)Oc2c(NS(=O)(=O)c3ccccc3)cccc2C1=O
→ 0.0934, -4.1, -0.6, -60.7
- COC(=O)c1ccc(Cl)c(NC(=O)CN(c2cccc(F)c2)S(C)(=O)=O)c1
→ /, 5.8, -0.8, /
- Cc1cc(C(=O)Nc2cccc3c2O[C@H](CN(C)C(=O)Nc2ccc(F)cc2)[C@H](C)CN([C@H](C)CO)C3=O)n(C)n1
→ -0.464, -17.3, -0.4, -19.9
- C[C@H](CO)N1C[C@H](C)[C@H](CN(C)Cc2ccncc2)Oc2ccc(NC(=O)CCC(F)(F)F)cc2CC1=O
→ -0.611, -8.5, /, /
- COc1ccc(CN(C)C[C@H]2OCCCC[C@@H](C)Oc3ccc(NS(=O)(=O)c4ccc(OC)cc4)cc3C(=O)N([C@H](C)CO)C[C@@H]2C)cc1
→ -0.16, -14.2, /, 9.4
- COc1ccc(S(=O)(=O)N(C)C[C@@H]2Oc3ccc(NC(=O)CCN4CCOCC4)cc3C(=O)N([C@@H](C)CO)C[C@@H]2C)cc1
→ 0.706, -5.6, -0.3, /
- CC(=O)c1cc2c(cc1O)OC(C)(C)C=C2
→ 1.89, -82.6, /, -69.2
- CCc1ccc(CN2CCN(Cc3ccc4c(c3)OCO4)CC2)cc1
→ -0.145, 25.0, 0.4, 32.4
- C[C@@H]1CN([C@@H](C)CO)C(=O)c2cccc(NC(=O)Nc3cccc4ccccc34)c2O[C@H]1CN(C)C(=O)Nc1ccc(F)cc1
→ -0.204, 7.4, -2.6, 15.9
- Cc1ccc(N(CC(=O)Nc2ccc(Br)cc2F)S(C)(=O)=O)cc1C
→ /, 0.8, 0.1, /
- C[C@H](CO)N1C[C@H](C)[C@@H](CN(C)Cc2ccc(C(=O)Nc3ccccc3N)cc2)Oc2ccc(NC(=O)CCN3CCOCC3)cc2C1=O
→ -0.301, -3.1, -0.5, /
- Cc1noc(C)c1NC(=O)Nc1ccc2c(c1)CC(=O)N([C@@H](C)CO)C[C@H](C)[C@H](CN(C)Cc1ccc(C(=O)Nc3ccccc3N)cc1)O2
→ -0.0246, 10.7, 0.5, /
- C[C@@H]1CN([C@@H](C)CO)C(=O)c2cc(NC(=O)CCN3CCOCC3)ccc2O[C@H]1CN(C)S(=O)(=O)c1cccs1
→ -0.0126, 7.9, /, -33.0
- O=C1C(=O)N(CCCN2CCOCC2)C(c2cccnc2)C1C(=O)c1cc2ccccc2o1 (centres undefined)
→ /, -5.4, 0.5, /
- C[C@@H]1CN([C@@H](C)CO)C(=O)Cc2cc(NC(=O)c3ccncc3)ccc2O[C@@H]1CN(C)S(=O)(=O)c1ccc(F)cc1
→ 0.23, -4.8, 2.3, 21.3
- CC(C)NC(=O)Nc1ccc2c(c1)C(=O)N([C@@H](C)CO)C[C@@H](C)[C@H](CN(C)Cc1ccc(C(F)(F)F)cc1)O2
→ -0.0267, -8.4, /, 2.4
- COc1ccc(NC(=O)Nc2ccc3c(c2)C(=O)N([C@@H](C)CO)C[C@H](C)[C@@H](CN(C)S(=O)(=O)c2cccs2)O3)cc1
→ -0.0645, -4.2, /, /
- C[C@H](CO)N1C[C@H](C)[C@@H](CN(C)S(=O)(=O)c2ccc(Cl)cc2)Oc2ccc(NC(=O)Nc3ccc(F)cc3)cc2C1=O
→ -0.3, -4.4, 0.5, /
- C[C@H]1CN([C@@H](C)CO)C(=O)c2cc(NS(=O)(=O)c3ccc(F)cc3)ccc2O[C@H]1CN(C)C(=O)NC1CCCCC1
→ 0.145, -7.6, -1.0, /
- COc1ccc(C(=O)N2c3ccccc3CCc3ccccc32)cc1
→ -0.238, 24.6, -2.4, -59.3
- COc1ccc(S(=O)(=O)N(C)C[C@@H]2OCCCC[C@@H](C)Oc3ccc(NC(=O)Nc4ccc(C(F)(F)F)cc4)cc3C(=O)N([C@H](C)CO)C[C@@H]2C)cc1
→ -0.0118, 12.7, -0.4, -6.2
- C[C@H](CO)N1C[C@H](C)[C@@H](CN(C)Cc2ccc(Oc3ccccc3)cc2)Oc2ccc(NC(=O)c3ccncc3)cc2C1=O
→ -0.0244, 5.1, /, 13.8
- C[C@H]1CN([C@@H](C)CO)C(=O)Cc2cc(NS(=O)(=O)c3ccc(Cl)cc3)ccc2O[C@H]1CN(C)S(=O)(=O)c1ccccc1
→ -0.0532, -8.4, /, 35.2
- C[C@H](CO)N1C[C@H](C)[C@@H](CN(C)Cc2ccc3c(c2)OCO3)Oc2c(NC(=O)C3CCOCC3)cccc2C1=O
→ 0.473, 3.1, 0.7, -63.0
- C[C@H](CO)N1C[C@H](C)[C@H](CN(C)Cc2ccc(C(=O)Nc3ccccc3N)cc2)Oc2ccc(NC(=O)Nc3ccccc3)cc2C1=O
→ 0.389, -35.4, 1.3, /
- O=C(O)CCC(=O)Cc1ccccc1
→ -0.0612, ?, 3.8, 7.2
- C[C@@H]1CN([C@@H](C)CO)C(=O)c2cccc(NS(=O)(=O)c3ccccc3)c2O[C@@H]1CN(C)Cc1ccc(C(=O)O)cc1
→ -0.436, 5.8, /, /
- COc1ccc(S(=O)(=O)Nc2ccc3c(c2)C(=O)N([C@H](C)CO)C[C@@H](C)[C@@H](CN(C)C)O3)cc1
→ -0.0893, -3.8, /, -12.2
- COc1ccc(CN(C)C[C@H]2Oc3ccc(NC(=O)Nc4ccc(OC)cc4)cc3CC(=O)N([C@@H](C)CO)C[C@@H]2C)cc1
→ -0.000763, -0.1, -0.9, 27.4
- C[C@H](CO)N1C[C@H](C)[C@H](CN(C)C(=O)Nc2ccc(F)cc2)Oc2ccc(NC(=O)CCN3CCOCC3)cc2CC1=O
→ -0.157, 2.3, /, -5.6
- C=C1C(=O)O[C@H]2C1CC[C@@](C)(O)[C@@H]1C[C@H](O)C(=C)[C@@H]12 (some centres undefined)
→ 0.245, /, /, 38.8
- COc1cc(CC2COC(c3ccc(O)c(OC)c3)C2COC(C)=O)ccc1O (centres undefined)
→ 0.0984, 6.5, -2.4, 7.6
- Cc1ccc(S(=O)(=O)N(C)C[C@@H]2OCCCC[C@@H](C)Oc3ccc(NS(=O)(=O)c4ccc(Cl)cc4)cc3C(=O)N([C@H](C)CO)C[C@@H]2C)cc1
→ -0.681, 53.7, -0.5, /
- C[C@@H]1CCCCO[C@H](CN(C)C(=O)CCCN(C)C)[C@@H](C)CN([C@H](C)CO)C(=O)c2cc(NS(=O)(=O)c3ccc(Cl)cc3)ccc2O1
→ 0.126, -15.2, /, -2.7
- C[C@@H]1CCCCO[C@@H](CN(C)C(=O)C2CCCCC2)[C@@H](C)CN([C@H](C)CO)C(=O)c2cc(NC(=O)Cc3ccccc3)ccc2O1
→ -0.127, 2.2, -0.6, -26.1
- O=[N+]([O-])c1cccc(NC(=S)NCCn2cc(Br)cn2)c1
→ /, 16.2, 0.1, /
- N#Cc1nc(-c2ccccc2F)oc1NCCN1CCOCC1
→ /, -63.0, 0.4, /
- Cc1noc(C)c1NC(=O)N(C)C[C@@H]1Oc2ccc(NS(=O)(=O)c3ccc(F)cc3)cc2C(=O)N([C@@H](C)CO)C[C@@H]1C
→ 0.239, 0.9, 0.7, -9.8
- CSc1cc(C(F)(F)F)c(C(=O)Nc2c(C)cccc2C)cn1
→ -0.0781, -11.5, 1.3, 11.0
- Cc1noc(C)c1NC(=O)Nc1cccc2c1O[C@H](CN(C)Cc1ccc(Cl)c(Cl)c1)[C@@H](C)CN([C@@H](C)CO)C2=O
→ 0.259, 1.3, 0.0, 28.1
- C[C@H](CO)N1C[C@H](C)[C@H](CN(C)Cc2ccc(Oc3ccccc3)cc2)Oc2ccc(NS(=O)(=O)c3ccccc3)cc2CC1=O
→ -0.129, 1.7, -1.1, -15.3
- C[C@@H]1CN([C@H](C)CO)C(=O)c2cccc(NS(C)(=O)=O)c2O[C@H]1CN(C)C(=O)Nc1ccccc1
→ -0.305, 2.3, 1.7, -5.1
- Cc1ccc(S(=O)(=O)N2C3C=CC(C3)C2C(=O)O)cc1 (centres undefined)
→ 0.113, 0.9, 0.2, -6.2
- Cc1ccc(S(=O)(=O)N(C)C[C@H]2Oc3ccc(N(C)C)cc3CC(=O)N([C@@H](C)CO)C[C@H]2C)cc1
→ -0.207, -2.2, /, 29.1
- C[C@H]1CN([C@@H](C)CO)C(=O)Cc2cc(NC(=O)Nc3ccccc3)ccc2O[C@H]1CN(C)Cc1ccc(C(=O)O)cc1
→ -1.23, -7.3, 0.8, 2.3
- C[C@@H]1CCCCO[C@@H](CN(C)C(=O)c2ccccc2)[C@@H](C)CN([C@H](C)CO)C(=O)c2cc(N(C)C)ccc2O1
→ -0.237, 8.0, 0.6, -43.0
- C[C@@H]1CN([C@@H](C)CO)C(=O)c2cccc(NS(C)(=O)=O)c2O[C@@H]1CN(C)Cc1ccc(Cl)c(Cl)c1
→ -0.162, -11.2, 0.4, -6.0
- COc1cccc(C(=O)NCCN2CCOCC2)c1
→ 0.0442, -6.4, -0.8, -12.1
- C[C@H]1CN([C@@H](C)CO)C(=O)c2cc(NC(=O)CCCCCC(=O)Nc3ccccc3N)ccc2O[C@@H]1CN(C)C
→ -0.0891, -7.3, 1.1, /
- C[C@@H]1CN([C@H](C)CO)C(=O)c2cc(NS(=O)(=O)c3cn(C)cn3)ccc2O[C@H]1CN(C)Cc1ccc(Oc2ccccc2)cc1
→ 0.196, -8.0, 3.4, /
- C/C=C(/C)C(=O)O[C@H]1[C@H](OC(=O)/C=C/c2ccccc2)[C@@]23C(CC1(C)C)[C@]1(CCC4[C@@]5(C)CC[C@H](O[C@@H]6O[C@H](C(=O)O)[C@@H](O)[C@H](O[C@@H]7O[C@H](CO)[C@H](O)[C@H](O)[C@H]7O[C@@H]7O[C@@H](C)[C@H](O)[C@@H](O)[C@H]7O[C@@H]7OC[C@](O)(CO)[C@H]7O)[C@H]6O[C@@H]6O[C@H](CO)[C@H](O)[C@H](O)[C@H]6O)C(C)(C)C5CC[C@@]4(C)[C@]1(C)C[C@H]2O)O[C@H]3O (some centres undefined)
→ -0.428, 90.4*, -14.7, 87.8*
- CNC[C@@H]1Oc2ccc(NC(=O)C3CC3)cc2C(=O)N([C@@H](C)CO)C[C@@H]1C
→ -0.612, 0.7, -0.2, /
- COc1ccc(OC)c(NC(=O)CSc2nc(N)c(-c3ccccc3)c(=O)[nH]2)c1
→ /, -0.2, 1.1, /

# Complete entries, quoted from the list:
# `Cc1noc(C)c1NC(=O)Nc1cccc2c1O[C@H](CN(C)Cc1ccc(Cl)c(Cl)c1)[C@@H](C)CN([C@@H](C)CO)C2=O` as listed: YB-1 expr inh = 0.259; MITF inh = 1.3; PD-1 reversal = 0.0; Hedgehog inh = 28.1
# `C[C@H](CO)N1C[C@H](C)[C@H](CN(C)Cc2ccc(Oc3ccccc3)cc2)Oc2ccc(NS(=O)(=O)c3ccccc3)cc2CC1=O` as listed: YB-1 expr inh = -0.129; MITF inh = 1.7; PD-1 reversal = -1.1; Hedgehog inh = -15.3

# Screening results from PubChem BioAssay.

# Only part of the results is shown. The share of hits here may be higher or lower than overall.
